Bioassay records deposited in PubChem BioAssay by National Center for Advancing Translational Sciences (NCATS).
Sfp inh – qHTS Assay for Inhibitors of Bacillus subtilis Sfp phosphopantetheinyl transferase (PPTase); 4'-phosphopantetheinyl transferase ffp (Bacillus subtilis), Q9F4F7; Biochemical Sfp PPTase activity, qHTS; Potency, µM, for inactives: max response, negative = inhibition, hits mostly inhibitors; actives 3.5% (n = 310,000); active = well fitted inhibition curve with a large enough effect; inconclusive = small, poorly fitted or top-dose-only effect, or another doubt; inactive = no such curve, though single readings can be large or run the other way;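 also: the enzyme is Sfp with the accession as filed and its product quenches rhodamine fluorescence; potency is read from the fitted curve at half-maximal effect; 0% = enzyme reaction without inhibitor and -100% = no enzyme wells; top concentration of the series not given in the record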
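With Hepes-Na pH 7.6 buffer containing 10 mM MgCl2, Sfp (15 nM) modified BHQ-2-YbbR (12.5 uM) using rhodamine-CoA (5 uM). Two reads 30 minutes apart at 525/598 nm yielded each well's rate.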
PINK1 modulator – A Quantitative High throughput Screen to Identify Chemical Modulators of PINK1 Expression; PINK1 immunofluorescence, high-content cytometry, 24 h; Potency, µM (highest dose often 76.6 µM), for the others: at the highest dose activation (PINK1 increase), actives largely listed as activators; actives 0.2% (n = 410,000); active = well fitted activation curve with a large enough effect; inconclusive = small, poorly fitted or top-dose-only effect; inactive = flat fitted curve, though single readings scatter; cell line not stated here;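 also: potency is read from the fitted curve at half-maximal effect; % of control where 0% means no effect; nearly all actives have a fitted effect of over 65% in size; a mitochondrial uncoupler was the plate control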
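Fluorescence from anti-PINK1 antibody, together with nuclear and cell stains, was scanned on a laser-scanning cytometer. Before staining, stable-line cells were incubated 24 hours with compounds at 5 concentrations; primary antibody 12 h at 10 degrees C.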
ClpP mod – qHTS Assay for Activators of ClpP. purified B. subtilis ClpP, FRET peptide cleavage, 20 min. ATP-dependent Clp protease proteolytic subunit (Bacillus subtilis (strain 168)), P80244. AID 651965, 2013. actives 1.9% (n = 340,000). Potency, µM (series often up to 57.5 µM), inactives show at the top dose activity change, negative = active; active = well fitted falling curve with a large enough effect; inconclusive = small, poorly fitted or top-dose-only effect; inactive = no such curve, though single readings can be large or run the other way; also: potency is read from the fitted curve at half-maximal effect; the source files actives as falling curves though it sought activators and does not explain the sign; nearly all actives have a fitted effect of over 65% in size; many hits overshoot -100%
Target sequence (P80244 whole entry, looked up): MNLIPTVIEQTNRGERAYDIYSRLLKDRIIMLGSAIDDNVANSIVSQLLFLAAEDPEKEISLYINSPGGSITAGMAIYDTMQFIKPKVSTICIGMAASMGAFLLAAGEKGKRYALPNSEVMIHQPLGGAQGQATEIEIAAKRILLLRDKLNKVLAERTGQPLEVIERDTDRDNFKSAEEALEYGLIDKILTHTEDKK
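FRET quenching reversal measured ClpP activation: 10 microg/mL B. subtilis ClpP at pH 8 with the FRET-FV decapeptide, read at 430 nm after 320 nm excitation. The 20-min minus 0-min signal was scaled between DMSO/no-enzyme wells and ADEP (5.8 microM final).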
gsp antagonist – qHTS for Antagonists of gsp, the Etiologic Mutation Responsible for Fibrous Dysplasia/McCune-Albright Syndrome: qHTS; actives 0.4% (n = 340,000); gsp-mutant cells, cAMP HTRF, 30 min; control for the full effect not named in the record; Potency, µM (highest dose often 76.9 µM), for the others: at the highest dose activity change, negative = inhibition, usual class: inhibitors; active = falling curve of any shape with a large fitted effect; inconclusive = falling curve, mostly with a smaller effect; inactive = flat or rising curve; cell line not stated here;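 also: intracellular cAMP measured with PDE inhibitor Ro 20-1724 present during compound exposure; potency is read from the fitted curve at half-maximal effect; % is scaled to controls: 0 for no effect and ±100 for the full control effect; nearly all actives have a fitted effect of over 65% in size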
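HTRF cAMP measurement after 30 min RT detection following 30 min, 37C compound treatment alongside […] (added as 300 uM solution) in G418-selected cells seeded at 2000/well and grown 16–24 h.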
Menin MLL FP FL – qHTS Assay for Inhibitors Targeting the Menin-MLL Interaction in MLL Related Leukemias: Competition With Fluorescein Labeled MLL-derived Peptide. Fluorescence polarization, fluorescein-MLL peptide displacement from menin. FP activity change, % at 61.4 µM. 290,000 tested, under 10 active; inconclusive = falling polarisation curve, or a change in total fluorescence; inactive = total fluorescence flat and polarisation flat or rising; no compound was filed as active; the % refers to the polarisation; negative = inhibition;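 also: % of control where 0% means no effect; inhibitors lower the polarisation; unlabelled MLL peptide was the positive control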
gsp ag – qHTS for Agonist of gsp, the Etiologic Mutation Responsible for Fibrous Dysplasia/McCune-Albright Syndrome: qHTS. gsp mutant cells, cAMP HTRF, 30 min; control for the full effect not named in the record. Potency, µM (doses to about 76.9 µM), without a hit: at the top dose activation (cAMP increase), hits mostly activators. actives 0.13% (n = 340,000); active = well fitted activation curve with a large enough effect; inconclusive = small, poorly fitted or top-dose-only effect, or another doubt; inactive = no such curve, though single readings can be large or run the other way; cell line not stated here;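 also: phosphodiesterase inhibitor Ro 20-1724 added with compounds to block cAMP breakdown; potency is read from the fitted curve at half-maximal effect; nearly all actives have a fitted effect of over 60% in size; about a fifth of the inactives were tested at one dose only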
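Cells in DMEM/10% FBS with G418 were pretreated with compounds in DMSO plus […] (300 uM stock) for 30 min at 37C. cAMP was measured by HTRF (cAMP-d2 plus anti-cAMP antibody-K) after 30 min at room temperature.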
D2 ag – Beta-Arrestin HTS for Positive Allosteric Modulators of the Human D2 Dopamine Receptor: Agonists | activation, % (test concentration not listed) | AID 624465, 2012 | actives 0.084% (n = 360,000) | DiscoveRx PathHunter D2 beta-arrestin, luminescence, 90 min; 100% = 57 uM dopamine signal | D(2) dopamine receptor (Homo sapiens), P14416; in the data active = activation above about 40%; inconclusive = about 15% to 40%; inactive = below about 15%; also: compound concentration not given in the record; the text of the record calls up to 30% inactive
Target sequence (P14416 whole entry, looked up): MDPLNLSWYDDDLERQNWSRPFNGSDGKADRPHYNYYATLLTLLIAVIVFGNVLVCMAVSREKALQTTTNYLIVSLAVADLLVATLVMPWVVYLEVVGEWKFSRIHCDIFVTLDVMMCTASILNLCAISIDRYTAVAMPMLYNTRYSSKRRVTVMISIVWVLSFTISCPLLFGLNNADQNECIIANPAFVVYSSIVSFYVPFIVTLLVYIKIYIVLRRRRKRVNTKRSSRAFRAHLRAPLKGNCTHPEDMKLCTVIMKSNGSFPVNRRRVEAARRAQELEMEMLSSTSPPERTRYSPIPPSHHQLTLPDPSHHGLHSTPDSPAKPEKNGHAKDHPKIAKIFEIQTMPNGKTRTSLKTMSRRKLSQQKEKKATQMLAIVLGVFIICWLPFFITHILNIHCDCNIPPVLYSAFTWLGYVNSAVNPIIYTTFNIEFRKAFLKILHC
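DiscoveRx PathHunter D2 beta-arrestin cells (2,100/well) attached overnight, then compound-stimulated 90 min at 37 C in HBSS/10 mM HEPES/0.1% Tween-20 buffer; beta-galactosidase complementation read by luminescence after 1 h at ambient temperature. Dopamine 57 uM final (EC100) as control.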
The depositor's hits bear a star; u = inconclusive; x = not tested or not shown; & = joins results of further samples; [ ] = remark or other dose. Outcome played no part in choosing rows; overall some 5.1% were active at least once.

SMILES	Sfp inh	PINK1 modulator	ClpP mod	gsp antagonist	Menin MLL FP FL	gsp ag	D2 ag
CC(=O)Nc1cccc(-c2csc(C(O)c3ccc(F)c(F)c3)n2)c1 (stereo not drawn)	x	0.3%	-0.9%	x	x	x	5.2
C=CC(COCc1ccccc1)N(C(=O)OC(C)(C)C)S(=O)(=O)c1ccccc1Br (stereo not drawn)	-13%&13%	3.9%	1.8%	-13%	0.5&3.6	-3%	-0.3
O=C(COC(=O)Cc1ccc(Br)cc1)NCc1ccc(F)cc1	12%	-1.1%	x	-4%	0.3	18%[15.4 µM]	-2.9
O=C(Nc1ccccc1N1CCOCC1)C1(c2ccc(Cl)cc2)CCC1	12%	3.1%	x	-7%	-1.5	17%	-2.0
Cc1ccccc1N1CCN(S(=O)(=O)N(C)C)CC1	1%	0.5%	x	7%	0.4	-12%	0.8
CCOC(=O)CCCNC(=O)CN1C(=O)NC(c2ccccc2)(c2ccccc2)C1=O	21%	-2.0%	x	4%	-3.1	16%	1.3
CC(C)(C)OC(=O)N1CCN(C(=O)Cn2cc(CCO)nn2)CC1	9%	1.4%	-0.1%	12%	3.2	20%	-7.1
CCCCNc1nnc(Cc2ccc(Cl)cc2)c(=O)[nH]1	13%	0.5%	-0.6%	7%	-2.5	15%	-4.5
CCN(CC)S(=O)(=O)c1ccc(C(=O)NC2=NCCS2)cc1	24%	9.3%	x	0%	1.4	-54%[inhibitor]	-0.8
COCc1ccc(CN2CCC(n3nccc3NC(=O)c3ccc4c(c3)OCO4)CC2)o1	x	0.9%	0.3%	x	x	u	-1.6
CN1CCC(=NNC(=O)C(=O)NC(C)(C)C)CC1	14%	x	2.6%	5%	0.4	-48%[inhibitor]	-1.5
O=C(NCc1ccc2c(c1)OCO2)C(c1ccco1)N(C(=O)c1csnn1)c1ccccc1 (stereo not drawn)	11%	3.9%	0.3%	7%	2.4	-9%	-0.9
COc1ccccc1Cn1c(=O)[nH]c2cccnc21	12%	-0.8%	0.2%	-9%	2.4	15%	-2.0
O=C(CCNC(=O)N1CCn2c1nc1ccccc12)NCc1ccc(Cl)cc1	4%	-0.3%	-3.1%	u	-0.9	-2%	1.1
Cc1ccccc1OCCNC(=O)CNC(=O)c1ccccc1O	14%	-2.1%[38.3 µM]	28µM*	2%	-0.2	-11%	-2.9
CC(=O)N1CCc2cc(S(=O)(=O)NC(C(=O)NCc3ccccc3)C(C)C)ccc21 (stereo not drawn)	1%	0.3%	-1.6%	-5%	0.2	-17%	-1.7
Cc1cc(C)c(OCC(=O)Nc2nnc(-c3ccco3)o2)c(C)c1	4%	0.7%	x	5%	2.1	-3%[15.4 µM]	-3.8
CCc1cc(/C(Cc2csc(C)n2)=N/O)c(O)cc1O	4%	0.5%	-0.2%	-15%	1.2	-18%	0.3
O=c1c2ccccc2nc2n1C(CSc1ccccc1)CS2 (stereo not drawn)	21%	-1.4%	0.6%	-5%	3.6	1%	-2.0
Cc1ccc(C(=O)OC(C)C(=O)NCc2ccc3c(c2)OCO3)cc1S(=O)(=O)N1CCOCC1 (stereo not drawn)	4%	-0.8%	-3.4%	-3%	x	-58%[inhibitor]	-1.5
C=CCn1c(SCC(=O)c2ccc(CNC(C)=O)o2)nc2scc(C3CC3)c2c1=O	45µM*	-0.8%	-5.8%	0%	19	24%	2.2
CSCC[C@H](NC(=O)N1C[C@H]2C[C@@H](C1)c1cccc(=O)n1C2)C(=O)Nc1ccc(NC(C)=O)cc1	11%	-1.1%	-21%	8%	-4.6	x	-3.9
Cc1ccc(-c2nc3cnccn3c2Nc2ccc3c(c2)OCCO3)o1	35µM*	-4.4%	-0.4%	21%	-1.2	u	2.9
COc1cc(C)c(NC(=O)C(=S)NCCc2ccccc2)cc1C	16µM*	3.6%	x	-6%	1.5	-18%	1.5
CC(C)(C)c1ccc(OC(=O)c2cccnc2)cc1	-15%	2.0%	1.6%	-3%	7.6	-41%[inhibitor]	-10
N#CCCN1CCN(CCC#N)CC1	9%	-2.9%[38.3 µM]	0.1%	8%	0.7	-4%	3.8
C=CCn1c(Cc2cccs2)nnc1SCC(=O)NCc1ccco1	8%	-0.7%	1.4%	13%	5.8	-60%[inhibitor]	-1.2
O=[N+]([O-])c1ccccc1Nc1nc(-c2cccnc2)cs1	-6%	-0.5%	0.0%	-3%	-0.5	-15%	-0.8
COc1cc(C)c(C)cc1S(=O)(=O)N1CCCc2ccccc21	0%	-0.7%	-5.1%	u	4.8	7%	-3.9
Cc1cc(/C=N/NC(N)=O)c(C)n1-c1ccc(F)cc1	-21%	-0.8%	-0.7%	7%	0.1	10%[15.4 µM]	0.4
CC(C)(C)OC(=O)C1=CC[C@@H](c2ccc(Cl)c(Cl)c2)N(S(=O)(=O)c2ccc(F)cc2)[C@H]1c1cccc(F)c1	x	11%	1.2%	x	x	x	3.0
COc1ccc(N2CC(C(=O)NC3CCSC3=O)CC2=O)cc1 (stereo not drawn)	11%	0.8%	x	6%	-5.8	1%	-0.9
COc1ccccc1CN1CCC2(CC1)CCN(C(C)=O)CC2	17%	-0.5%	x	x	-4.5	x	x
NC(=O)CCn1nc(-c2ccccc2)c2ccccc2c1=O	12%	2.5%	-2.4%	1%	-1.7	7%	1.1
CC(C)OCCCNC(=O)CN1C(=O)/C(=C/c2ccccc2)Sc2ccccc21	-17%	0.8%	5.6%	-24%	-0.9	18%	0.1
Cc1cccc(OCC(=O)Nc2cccc3nsnc23)c1	14%	x	u	0%	1.2	1%	-0.9
O=S(=O)(c1cc(F)ccc1F)N1CCN(c2ncccn2)CC1	-3%	-0.3%	-12%	7%	-2.8	u	0.9
COc1cccc([C@@H]2CC=C(C(=O)O)[C@H](c3ccc(Br)cc3)N2S(=O)(=O)c2ccc(C)cc2)c1	x	-0.4%	2.0%	u	x	x	-0.7
CC(C)(C)n1nc2c(c1NC(=O)c1cc3ccccc3o1)CS(=O)(=O)C2	4%	-1.0%	x	4%	1.0	-19%	1.8
N#Cc1c(C(F)(F)F)cc(-c2ccccc2)nc1SCc1nc(N)nc(N2CCOCC2)n1	-12%	5.9%	-0.5%	-7%	u	11%[15.4 µM]	-1.6
CCOC(=O)N1CCN(c2c(NCCCN(CC)CC)c(=O)c2=O)CC1	14%	0.0%	-1.3%	12%	0.7	-7%	-3.3
Cc1cc(C)c(C)c(S(=O)(=O)N2CCC(C(=O)N3CCCC3)CC2)c1C	x	-0.7%	-2.5%	-13%	x	-37%[inhibitor]	-2.7
Cc1nc(SCC(=O)N2CCCCCC2)c2c(=O)n(C)c(=O)n(CC(C)C)c2n1	x	1.3%	0.9%	u	x	1%	5.1
O=C(Nc1nnc([C@@H]2C[C@H](O)[C@@H](CO)O2)s1)Nc1ccccc1F	x	1.7%	0.9%	x	x	x	-2.2
COc1ccc(CNC(=O)CS(=O)Cc2nc(-c3ccc(OC)c(OC)c3)oc2C)cc1 (stereo not drawn)	-1%	1.8%&0.7%	4.7%	3%	x	-22%	-2.4
CC1=NN(C(=O)c2ccccc2)C(O)(c2ccc(Br)cc2)C1 (stereo not drawn)	11%	0.7%	x	-10%	3.3	17%[15.4 µM]	-5.0
COc1ccc2[nH]c(=O)c(CN(Cc3nnnn3Cc3ccccc3)CC3CCCO3)cc2c1 (stereo not drawn)	89µM*	1.5%[38.3 µM]	28µM*	-11%	-13	-13%	-0.5
CC(C)[C@H](Nc1ccc(S(=O)(=O)N2CCOCC2)cc1[N+](=O)[O-])C(=O)OCC(=O)N(C(C)C)C(C)C	-12%	2.9%	-1.4%	u	-8.0	19%	-0.4
Cc1cccc(NC(=O)C2CCN(C(=O)NC3CCCCC3)CC2)c1	18%	4.5%	-3.4%	3%	4.4	1%[15.4 µM]	-3.1
COc1ccccc1Cc1c(-c2ccccc2)nc2ccc(Br)cn12	x	u	-8.3%	x	x	x	-2.6

(continued)
SMILES	Sfp inh	PINK1 modulator	ClpP mod	gsp antagonist	Menin MLL FP FL	gsp ag	D2 ag
O=C(NCCc1ccccc1)[C@@H]1CC=C[C@@H]2CCN(Cc3ccccc3)C(=O)[C@@H]21	x	-0.4%	-2.5%&0.7%	4%	x	x	-3.3
Cc1cccc(N2C(=O)C(O)=C(C(=O)c3cccs3)C2c2ccc(C(C)C)cc2)n1 (stereo not drawn)	4%	0.2%	-0.2%	-10%	-0.2	7%[15.4 µM]	-4.8
CC(=O)N(C)c1ccc(NC(=O)/C=C/c2ccccc2Cl)cc1	-10%	6.7%	1.5%	-30%	3.3	12%	-2.7
COC(=O)c1ccc(CSc2nnc(CS(=O)Cc3ccc(Br)cc3)n2-c2ccccc2)cc1 (stereo not drawn)	-6%	5.8%	1.0%	-32%	2.1	-1%	1.1
CSc1nc(-c2ccc(N(C)C)cc2)c(C#N)c(=O)n1C	9%	u	29%	-15%	u	u	-2.4
CN1CCN(S(=O)(=O)Cc2ccc(Cl)cc2)CC1	9%	0.0%	x	11%	-0.7	-45%[inhibitor]	1.5
O=c1cc(N2CCc3ccccc32)[nH]c(=O)n1-c1ccc(Cl)cc1	2%	0.0%	0.6%	-6%	-2.9	-46%	-5.9
COc1ccc(-c2nnc(SCC(=O)Oc3ccc(C)cc3)o2)cc1	18%	-1.0%	0.2%	-1%	1.4	26%	-1.5
CS(=O)(=O)N1CCc2cc(C(=O)OCC(=O)c3ccccc3)ccc21	9%	-0.2%	-2.0%	-26%	0.8	0%	0.4
COc1cccc(OC)c1OCCCOc1cccc2cccnc12	9%	2.3%	x	9%	-5.0	0%	-1.2
CCOC(=O)C1(NC(=O)C2(N3C(=O)c4ccccc4C3=O)CCCC2)CCCC1	x	1.7%	-2.0%	5%	x	-5%[15.4 µM]	-1.5
